Sa RN4220 lethal: kills Staphylococcus aureus RN4220 | AID 1259311 | actives 0.33% (n = 330,000) | S. aureus RN4220 growth, OD600, 16 h | inhibition, % (concentration not given with the values);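 active means z-score of -3 or lower and OD600 up to 0.18 on both plates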;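 further: plate controls were untreated cells for no effect and reference antibiotic for full effect; stock transfer was 100 nL into about 80 µL; one replicate is shown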
Mtb hypoxia rep: Mtb hypoxia fluorescent reporter inhibition; M. tuberculosis hypoxia-regulated fluorescent reporter, fluorescence; fluorescence inhibition, % (no concentration beside the values); actives 0.1% (n = 300,000);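 active means 35 to 45% if threefold the growth effect, above 45% if 1.5-fold the growth effect; inactive means the rest, general growth blockers included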;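 further: wells of about 50 µL received 100 nL stock; 0% = vehicle wells and 100% = reference inhibitor wells; whole bacteria with a GFP reporter of the hypoxia response; strong numbers were not always called active; many hits fall short of the cut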
PrP 5UTR inh: inhibition of PrP 5' UTR reporter expression; actives 0.35% (n = 340,000); AID 488862; cell-based PrP 5' UTR mRNA reporter, plate reader; inhibition, % (test concentration not listed);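 active means every replicate at 50% or more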;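 further: 0 = median of the neutral control wells; tested in H4 reporter cells; numbers are from one replicate; inactives centre near -14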
ugtP null kill: compounds lethal to S. aureus RN4220 ugtP deletion mutant; OD600 growth, 16 h; some inactives read as strong as hits; growth inhibition, % (no concentration beside the values); actives 0.54% (n = 330,000); AID 1259309;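 active means z-score under -3 and OD600 up to 0.15 on both plates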;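 further: plate controls were untreated wells for no effect and antibiotic for full effect; wells of about 80 µL received 100 nL stock; the first replicate is given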
Autofluor counter: compound fluorescence in toxin protease inhibitor counterscreen. compound autofluorescence counterscreen, microsphere flow cytometry; hits give high values. actives 3.1% (n = 360,000). fluorescence intensity (concentration not given with the values). AID 624483;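 active means at least 3 SD above the mean of all compounds, about 16000 in these data; inconclusive means too few beads counted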;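 further: 100 nL of 1 mM stock went into each well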
BJeLR lethal: kills HRASV12-expressing BJeLR cells; BJeLR (HRASV12) viability, CellTiter-Glo ATP luminescence, 48 h; reference of the scale not given here; inhibition, % (concentration not given with the values); actives 0.17% (n = 300,000);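 active means replicate mean above 50%; inconclusive means above 50% but judged a plate artefact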;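 further: 50 nL library stock added to about 25 µL; numbers are from one replicate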
Mtb hypoxia rep growth: further read-out of Mtb hypoxia rep, marked with its call; growth inhibition, %; measured here: M. tuberculosis growth (absorbance);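 0% = vehicle and 100% = reference antibiotic; read after six days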
* = called active by the depositor; ? = inconclusive; . = no result given; & = joins results of further samples. Compounds as they come; any-hit rate near 3.9%.

SMILES	Sa RN4220 lethal	Mtb hypoxia rep	Mtb hypoxia rep growth	PrP 5UTR inh	ugtP null kill	Autofluor counter	BJeLR lethal
CC1CN(Cc2csc(-c3ccc(Cl)cc3)n2)CC(C)O1 (configuration not stated)	3.0	10	7	-42	23	4097	-4
COc1ccc(CCN2C(=O)CSC2=Nc2ccc(C)cc2C)cc1OC	5.2	8	7	-19	-4	.	0
C=CCSc1n[nH]c(-c2ccccc2)n1	3.9	.	.	-76	-3	2851	3
CC(=O)Nc1cccc(NC(=O)CSc2nnc3ccccn23)c1	1.6	2	3	-10	4	3630	.
O=[N+]([O-])c1ccc(/C=C/c2ccncc2)cc1	6.9	13	9	-26	4	4190	2
Cc1cccc(-c2noc(CN(C(=O)/C=C/c3ccccc3Cl)C(C)C)n2)c1	7.6	0	12	-15	23	2465	-9
Cc1c(C(=O)NN=CC(C)C)[nH]c2c([N+](=O)[O-])cccc12	4.6	15	5	.	-1	.	.
Cc1ccc(-n2nc(CN3CCOCC3)c(-c3ccccc3)c2N)cc1Cl	1.1	5	4	1	2	2291	-2
CC(CCc1ccccc1)NC(=O)CN(C)Cc1ccccc1F (configuration not stated)	4.8	4	-4	-13	6	4585	8
Cc1c(NC(=S)N2CCN(c3ccc(F)cc3)CC2)c(=O)n(-c2ccccc2)n1C	0.8	3	5	-12	5	4130	-1
CC(=O)c1sc2nc(C)c3c(c2c1N)CCCC3	11	0	3	.	-2	3659	2
Cc1cccc(-c2nc3sc(C)cc3c(=O)o2)c1	-12	6	1	-31	10	3787	-4
CCN1CCN(Cc2ccc(NC(=O)c3ccc(C)c(/C=C/c4cnc(Nc5cc(N6CCNCC6)nc(C)n5)cn4)c3)cc2C(F)(F)F)CC1	.	.	.	54	.	8319&6436	15
CCOc1ccc(NC(=O)N2CCCC2C(=O)NCc2ccco2)cc1 (configuration not stated)	1.2	8	7	-25	11	3478	6
Cc1nn(CC(=O)OCC(=O)Nc2c(C(C)C)cccc2C(C)C)c(C)c1[N+](=O)[O-]	5.2	0	2	8	3	8739	-19
Cc1ccc(NC(=O)c2cc(F)c(F)cc2Cl)nc1	7.1	1	3	-36	0	4714	-13
COc1cccc(C(=O)COc2ccc3c(C)c(Cc4ccccc4)c(=O)oc3c2C)c1	3.5	6	-4	.	-1	.	4
Cc1ccc(NC(=O)C(C)OC(=O)CCNS(=O)(=O)c2ccc(C)cc2)cc1 (configuration not stated)	7.9	-11	-5	-11	14	7655	5
Cc1nnc(C)n1/N=C/c1ccc(-c2ccccc2Cl)o1	.	.	.	-4	.	5576	-9
Cc1onc(-c2c(F)cccc2Cl)c1C(=O)N(C)CCc1ccccn1	8.4	0	1	6	18	?	-11
COC(=O)C1=C(C)N(c2ccccc2)/C(=C/c2ccco2)C1=O	2.5	0	-1	-5	1	6136	-3
Cc1ccc(C(=O)CC(=O)c2cc(Cl)ccc2O)cc1	100*	-1	15	-47	99*	10212	1
NS(=O)(=O)c1ccc(CCNC(=O)C(=O)C2C(=O)Nc3ccccc32)cc1 (configuration not stated)	2.1	2	-4	-28	4	5908	-5
CC1C(=O)NN=C1C(=O)N/N=C\C(Br)=C\c1ccccc1 (configuration not stated)	.	.	.	-25	.	4036	0
N#Cc1cccc(NC(=O)CNc2cc(S(=O)(=O)N3CCOCC3)ccc2N2CCCC2)c1	0.9	-2	-1	-16	2	6354	.
Cn1c(=O)c2c(ncn2CCC(=O)N/N=C/c2ccccc2)n(C)c1=O	.	.	.	-8	.	4244	10
O=C(CS(=O)(=O)c1cn(Cc2ccccc2Cl)c2ccccc12)N1CCOCC1	3.1	7	1	-12	3	9175	-2
CCOC(=O)C1CCN(CC(O)COc2ccc(C(C)=O)cc2)CC1 (configuration not stated)	-1.5	.	.	-36	3	5833	1
Cc1ncc(CN2CCC(C(=O)Nc3ccc(Oc4cccnc4)cc3)CC2)cn1	.	.	.	-15	.	5169	4
CC(C)(CN=C1NS(=O)(=O)c2ccccc21)CNC(=O)CN1C(=O)c2ccccc2C1=O	-17	18	-19	-14	-8	.	6
CC(OC(=O)C1CCN(S(=O)(=O)c2ccccc2C(F)(F)F)CC1)C(=O)N(C)Cc1ccccc1 (configuration not stated)	-1.7	5	-3	-12	3	5411	3
Cc1ccccc1-n1c(=O)cc(N2CCN(C(=O)c3ccco3)CC2)[nH]c1=O	-13	-5	8	-20	-3	6086	3
Cc1ccccc1CN1CCCC(C(=O)Nc2ccccc2Oc2cccnc2)C1 (configuration not stated)	4.9	15	0	-1	11	5920	0
COc1ccc(/C=C/C(=O)OCC(=O)NC(C)CCc2ccccc2)cc1 (configuration not stated)	1.8	8	3	-17	6	4290	.
Cc1ccc(C(=O)N(CN2CCCC2=O)c2ccccc2)cc1C	5.0	4	-4	-5	6	14958	-2
CCOC(=O)c1cc2c(n(-c3ccccc3)c1=O)CC(C)(C)CC2=O	2.6	-11	-7	-11	1	25220*	-18
CC1CN(C(=S)NC(=O)C2CCCCC2)CC(C)O1 (configuration not stated)	.	.	.	-2	.	1969	-13
COc1cc(Br)cc(/C=C/c2ccc3cccc(O)c3n2)c1O	-8.1	16	1	.	4	3504	-2
COc1cc(/C=N\Nc2nc3ccccc3o2)cc(OC)c1OC	.	.	.	-29	.	5787	4
COc1ccccc1N1C(=O)NC(=O)C(=Cc2ccc3c(c2)Cc2ccccc2-3)C1=O	12	9	1	.	5	.	.
N#CC1=C(Nc2ccccc2)SC=C(c2ccc(Br)cc2)N=C1N1CCOCC1	4.8	.	.	-18	0	4686	-1
Cc1ccc(Cn2ccc(O)c(Cc3ccccc3)c2=O)cc1	4.2	15	-2	-19	2	5230	-3
COc1ccc(-c2[nH]c(-c3ccc(C)cc3)nc2SCC(=O)NC2CCCC2)cc1	-2.1	8	7	-28	2	6530	-10
Cc1cc(C)cc(OCC(=O)NC2CCCc3ccccc32)c1 (configuration not stated)	3.7	12	2	-11	0	2074	4
O=C(Oc1ccccc1-c1nnco1)c1ccccc1	10	2	4	-29	6	2798	0
O=C(COC(=O)c1cc(-c2ccccc2)nc2ccccc12)Nc1ccc2c(c1)OCO2	-4.5	-11	-4	0	-12	2330	-3
CC(=O)c1cccc(N(CC(=O)Nc2cccnc2)S(C)(=O)=O)c1	-1.9	-6	-2	-34	-1	8012	-4
Nc1cccc(S(=O)(=O)Nc2ccc(SC(F)F)cc2)c1	0.5	10	8	-3	12	4618	5
CCC1=NN2C(=N)/C(=C/c3ccc(OS(=O)(=O)c4ccc(C)cc4)c(OC)c3)C(=O)N=C2S1	-3.3	7	0	-19	2	4073	-4
CC(C)COc1ccc(C(=O)Nc2ccc(NC(=O)c3ccco3)c(Cl)c2)cc1	5.4	14	3	-19	-2	3079	-9
COc1cc(C)c(S(=O)(=O)NCc2cccnc2)cc1C	5.3	14	3	-16	-4	4208	10
Cc1cc(=O)[nH]c(SCc2nc3ccc([N+](=O)[O-])cc3[nH]2)n1	3.6	11	-3	-23	7	2634	-5
C=CCSc1nc2sc3c(c2c(=O)n1CC)CCc1ccccc1-3	13	4	2	-26	21	15379	.
COc1ccc(C(C)=O)cc1CSc1nncn1-c1ccccc1	6.2	4	0	-17	6	2558	13
CC(CC(=O)NC1CCCCC1)=NNC(=O)Cc1ccc(-c2ccccc2)cc1	9.4	12	0	.	7	.	.
Cc1ccc(NC(=O)CCSCCC(=O)Nc2ccc(C)c(C)c2)cc1C	-6.0	.	.	-10	3	3134	0
O=[N+]([O-])c1ccc(C(O)CNC(=S)Nc2ccccc2)cc1 (configuration not stated)	3.9	-3	18	-1	12	3780	-1
CN(C)CC(O)COC(c1ccccc1)c1ccccc1 (configuration not stated)	3.8	7	6	-6	9	3738	4
CC1CCC(C(=O)NC(C(=O)NCCc2ccc(S(N)(=O)=O)cc2)C(C)C)CC1 (configuration not stated)	1.4	-10	8	-20	1	3479	10
COc1ccc(N2CCCC2)c(NC(=O)COc2ccccc2Cl)c1	1.2	-13	-1	-35	1	5437	10

Of the compounds above, these contain bromine.
SMILES	Sa RN4220 lethal	Mtb hypoxia rep	Mtb hypoxia rep growth	PrP 5UTR inh	ugtP null kill	Autofluor counter	BJeLR lethal
CC1C(=O)NN=C1C(=O)N/N=C\C(Br)=C\c1ccccc1 (configuration not stated)	.	.	.	-25	.	4036	0
COc1cc(Br)cc(/C=C/c2ccc3cccc(O)c3n2)c1O	-8.1	16	1	.	4	3504	-2
N#CC1=C(Nc2ccccc2)SC=C(c2ccc(Br)cc2)N=C1N1CCOCC1	4.8	.	.	-18	0	4686	-1

Additional results follow:
SMILES	Sa RN4220 lethal	Mtb hypoxia rep	Mtb hypoxia rep growth	PrP 5UTR inh	ugtP null kill	Autofluor counter	BJeLR lethal
O=C(CN(c1ccccn1)S(=O)(=O)c1ccccc1)NN=Cc1cccc([N+](=O)[O-])c1	2.4	2	4	.	8	.	.
O=C(Nc1ccc(S(=O)(=O)N2CCOCC2)cc1)C1CCN(S(=O)(=O)c2ccc(Cl)cc2)CC1	3.2	7	8	-11	-6	4107	.
CCCc1cc(=O)[nH]c(SC(C)C(=O)Nc2ccc3c(c2)OCCO3)n1 (configuration not stated)	6.0	4	0	-20	8	8700	.
COc1ccc(C(=O)Nc2ccc(/C(C)=N/NC(=O)c3ccncc3)cc2)cc1	.	.	.	-68	.	5834	-13
COc1ccc(N2CC(=O)N(c3ccccc3)C2=S)cc1	3.1	2	-4	-19	-2	2400	9
CC(=O)Nc1sc(NC(=O)c2ccccc2)nc1-c1cccs1	3.8	5	7	-47	-13	8037	-26
COc1cccc(C2=CC(=O)CCC2)c1OC	8.4	24	11	-12	2	4283	-12
O=C(CCNc1cc(Cl)cc(Cl)c1)c1cccs1	8.3	.	.	-22	-26	9406	-9
CCCCC(=O)NC1(C(F)(F)F)NC(=O)N(C)C1=O (configuration not stated)	4.4	12	8	-26	6	4620	-4
CCCCCCCC(=O)Nc1ccc(S(=O)(=O)Nc2nccs2)cc1	2.2	.	.	-14	20	2381	-1
O=C(Nc1ccccc1)c1ccc(-c2ccc(F)cc2)s1	4.9	1	-11	-119	2	3291	6
c1ccc(Cc2nnc(-c3ccccc3)o2)cc1	1.5	.	.	-43	-3	2850	-3
CC(C)Oc1ccc(Cc2c(O)nc(NCCCN(C)C)[nH]c2=O)cc1	-8.4	19	8	-28	3	2892	-9
O=C(OCc1ccc(Br)cc1)c1cnc(Cl)c(Cl)c1	0.8	-4	8	-8	2	3891	0
COc1cc(/C=N/NC(=O)c2cccc([N+](=O)[O-])c2)ccc1OC(=O)c1ccco1	.	.	.	-7	.	4613	18
CN(Cc1ccccc1)C(=O)N1CCOCC1	2.8	7	2	-2	4	3108	-2
Cc1cccc(C(=O)N2CCN(c3ccc(C(F)(F)F)cn3)CC2)c1C	5.6	.	.	-23	-3	2563	-2
CCOC(=O)c1ccc(NC(=O)CCc2nc(-c3ccccc3Cl)no2)cc1	0.1	9	6	-20	-4	3548	7
Cc1cnc(C(=O)OCC(=O)Nc2ccccc2[N+](=O)[O-])cn1	2.9	5	6	-24	2	3808	.
Cn1c(SCC(=O)NCc2cccs2)nnc1-c1ccc(O)cc1	5.9	13	2	-29	7	4824	5
O=C(NC1CCN(Cc2ccccc2)CC1)c1ccc2c(c1)[nH]c(=O)n2Cc1ccc(F)cc1	5.1	4	-4	-13	2	4882	15
O=C(NNC(=O)C1CCN(c2ncccn2)CC1)c1ccncc1	5.4	10	8	-4	7	3333	5
CCOC(=O)Nc1csnn1	0.3	7	4	-17	5	3375	15
CC(=O)N[C@H]1C[C@@H]1c1ccccc1	1.8	.	.	-19	-3	5500	7
Nc1nc(F)nc2c1ncn2[C@@H]1O[C@H](CO)[C@@H](O)[C@H]1O	.	.	.	94*	.	4345	97*
CCCc1cc(=O)n2c([nH]c3ccccc32)c1C#N	54	16	8	-28	40	10742	9
CCCCOc1ccc(/C=N/Nc2cc(N3CCOCC3)nc(C)n2)cc1	.	.	.	-34	.	4281	-3
Cc1ccc(CSc2nnc(-c3ccc(NS(=O)(=O)c4ccccc4)cc3)o2)cc1	-18	16	5	-32	2	2322	3
Cc1nn(-c2ccccc2)c(C)c1CCC(=O)O	-4.1	-9	-2	-28	-9	10877	-5

Source: PubChem BioAssay
